Bioassay records as filed in PubChem BioAssay.
CSC inhib – blocks cancer stem cells; cancer stem cell-like cells viability, luminescence; inhibition, % at 7.5 µM; 1.1% of 300,000 active;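 active = mean at 75% or more and at least half the replicates too; tested in HMLE shEcad cells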;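 note: 0% = median of negative and 100% = median of positive control wells; the first replicate is given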
eIF4H FP inh – inhibitors of RNA binding by human eIF4H. Q15056. eIF4H fluorescence polarization binding assay. inhibition, % at 35 µM. 0.94% of 290,000 active;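 active = 50% or more with normal probe brightness, or confirmed in later tests; about a fifth of its hits are not listed in these tables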;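 note: calls also rest on retests at 20 µM and on dose response follow-up; 0% = protein and probe with vehicle and 100% = probe without protein; strong numbers were not always called active; many hits fall short of the cut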
PABP FP inh – blocks human PABP binding to poly(A) RNA; P11940; fluorescence polarization; inhibition, % at 35 µM; 1% of 290,000 active;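 active = 50% or more with normal probe brightness, or confirmed in later tests; about a fifth of its hits are not listed in these tables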;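 note: calls also rest on retests at 20 µM and on dose response follow-up; controls were probe without protein and protein plus probe with vehicle; some compounds called inactive have numbers as strong as hits; many hits fall short of the cut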
Target sequence (P11940 whole entry, looked up): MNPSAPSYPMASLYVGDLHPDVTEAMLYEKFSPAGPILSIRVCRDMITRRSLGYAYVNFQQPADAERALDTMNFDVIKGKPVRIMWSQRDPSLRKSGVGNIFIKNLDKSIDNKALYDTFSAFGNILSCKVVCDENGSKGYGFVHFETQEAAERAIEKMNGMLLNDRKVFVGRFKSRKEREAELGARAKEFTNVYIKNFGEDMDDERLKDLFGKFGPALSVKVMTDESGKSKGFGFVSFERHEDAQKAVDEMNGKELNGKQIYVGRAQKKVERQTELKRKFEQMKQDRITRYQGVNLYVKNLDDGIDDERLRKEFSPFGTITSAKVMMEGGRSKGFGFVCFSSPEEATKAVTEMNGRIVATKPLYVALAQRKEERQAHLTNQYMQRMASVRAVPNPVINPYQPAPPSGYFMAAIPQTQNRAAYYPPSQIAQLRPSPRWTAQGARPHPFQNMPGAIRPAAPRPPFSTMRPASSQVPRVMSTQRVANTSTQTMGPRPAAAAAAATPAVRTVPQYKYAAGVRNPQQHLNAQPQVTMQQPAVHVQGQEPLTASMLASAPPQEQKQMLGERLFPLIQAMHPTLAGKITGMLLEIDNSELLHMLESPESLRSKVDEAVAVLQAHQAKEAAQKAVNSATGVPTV
UUG fidelity – yeast start codon fidelity modulation. S. cerevisiae UUG-firefly luciferase reporter, luminescence/redox ratio. activity score, % at 18.7 µM. 0.13% of 350,000 active;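 active = replicate mean at a twofold rise or more, about +100% in these data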;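 note: firefly luciferase made from a UUG start codon reports start codon fidelity; reporter light over untreated wells divided by growth signal over untreated wells; some hits fall short of that in this replicate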
MT1-MMP act inh – MT1-MMP (human) activation inhibition; P50281; HT1080 RFP-PRO-GFP cells, GFP/RFP ratio fluorescence, overnight; percent of plate control window, DMSO zero; GFP/RFP ratio change, % at 20 µM; 0.061% of 360,000 active;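 active = GFP/RFP ratio change of at least 30% with cell ATP level not reduced by more than half and red fluorescence within 50% of control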; note: strong numbers were not always called active
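Assay system: HT1080 RFP-PRO-GFP cells | Dosing: 20 µM single dose, 1% DMSO | Incubation: Cells overnight before dosing, compound overnight, 37 °C, 5% CO2 | Evaluation: GFP/RFP fluorescence ratio | Control set: DMSO-only wells and HT1080 RFP-L50D-GFP cell wells as references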
Env fusion inh – HIV envelope-mediated fusion inhibition | 1.1% of 360,000 active | inhibition, % at 12.3 µM | HeLa-JRFL Env/CEM21 cell fusion, luciferase | AID 651610;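 active = mean replicate inhibition score of at least 50 and every replicate individually at or above 50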;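 note: 0% = plate neutral controls and 100% = maraviroc near 300 nM; one replicate is shown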
Rce1 inh – blocks yeast Ras-converting enzyme; 0.27% of 290,000 active; calls only; yeast membranes, quenched prenylated peptide cleavage fluorescence;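 active = fall in fluorescence gain of 50% or more versus controls, with final raw signal at or below 3038400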;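 note: plate controls were neutral control wells for no effect and wells lacking membranes for full effect; tested at 10 µM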
Target sequence (Q03530 whole entry, looked up): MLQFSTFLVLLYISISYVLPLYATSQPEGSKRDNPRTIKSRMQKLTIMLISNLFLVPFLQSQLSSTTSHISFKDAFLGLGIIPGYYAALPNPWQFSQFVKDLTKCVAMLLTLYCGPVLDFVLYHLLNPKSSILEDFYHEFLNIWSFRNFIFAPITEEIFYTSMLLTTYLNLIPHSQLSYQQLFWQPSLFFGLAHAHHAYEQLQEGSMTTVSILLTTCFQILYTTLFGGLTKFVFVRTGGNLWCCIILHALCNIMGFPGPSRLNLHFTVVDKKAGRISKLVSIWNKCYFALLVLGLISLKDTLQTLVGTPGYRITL
eIF4H FP inh retest – recorded beside eIF4H FP inh, whose call it bears; inhibition, %; compound at 20 µM; confirmation average;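 mean of two retest wells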
PABP FP inh retest – also measured in PABP FP inh; calls as there; inhibition, %; compound at 20 µM; confirmation repeats;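 mean of two retest wells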
MT1-MMP act inh RFP – also measured in MT1-MMP act inh; calls as there; RFP signal change, %; measured here: RFP expression control read;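 0 = vehicle wells; hits needed this value within 50% of zero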
* marks the source's active call; other numbers are inactive results; i = inactive; . = no result given. Not all compounds are listed, so the mix of outcomes need not match the whole.

SMILES	CSC inhib	eIF4H FP inh	PABP FP inh	UUG fidelity	MT1-MMP act inh	MT1-MMP act inh RFP	Env fusion inh	Rce1 inh	others
O=C(Nc1nnc(S(=O)(=O)N2CCCCCC2)s1)c1ccccc1Br	2	-8	-4	-2	5	1	-7	i
CN(CC(=O)Nc1cccc(F)c1)C(=O)c1ccc(NC2CC2)c([N+](=O)[O-])c1	-1	.	.	-10	10	1	15	i
O=C(c1cc2ccccc2oc1=O)N1CCN(Cc2ccc3c(c2)OCO3)CC1	-3	5	4	-13	4	5	-2	i
Fc1cccc(F)c1-n1c(CN2CCOCC2)csc1=S	-8	-8	-5	-23	-1	3	-15	i
CC1CCN(S(=O)(=O)c2ccc3c(c2)oc(=O)n3CC(=O)N2c3ccccc3CC2C)CC1 (centres undefined)	5	4	0	-37	4	-2	2	i
CC(=O)Nc1ccc(S(=O)(=O)NCCC(=O)NCc2ccncc2)cc1	.	.	.	-12	-2	3	.	i
CCOC(=O)c1c(CSc2ccccc2)oc2cc(Br)c(O)c(CN(C)C)c12	38	-7	0	.	-1	-3	127*	i
COc1cccc(-n2cc(C(=O)NCCCOC(C)C)c3ccccc3c2=O)c1	-12	0	3	-8	-1	-2	17	i
Cc1onc(-c2ccccc2Cl)c1C(=O)N(Cc1nc(-c2ccccc2)no1)C1CCCCC1	.	4	5	-11	-14	-16	88*	i
COc1cccc(-c2nc(=S)c3c(n2CCCO)CCCC3)c1	.	12	-6	-18	-2	-1	.	i
O=C(NCCN1CCCCC1)Nc1ccc(Cl)cc1	2	-9	4	2	2	2	-7	i
COc1cccc(NC(=O)c2ccccc2Br)c1	-9	-1	2	-3	-1	-1	-38	i
CC(CNS(=O)(=O)c1ccc(Br)cc1)CN(C)C (centres undefined)	-8	-3	-5	.	-2	-1	35	i
CCc1noc(C)c1C(=O)NNC(=O)c1ccc(F)cc1	1	.	.	-5	8	4	1	i
CCc1ccc(N(CC(=O)NC(C)C)C(=O)CCC(=O)Nc2ccccn2)cc1	4	0	3	3	2	2	3	i
COc1ccc(N2CCN(C(=O)CN3C(=O)c4ccccc4S3(=O)=O)CC2)cc1	12	-9	4	-4	-4	-1	.	i
O=C(NC1CCN(Cc2ccccc2)CC1)c1ccccc1OCc1ccccc1Cl	19	-15	-18	-17	-4	-8	-19	i
O=C(CSCc1ccc(Br)cc1)NCCc1ccccc1	4	-7	-6	-8	-1	3	14	i
COc1cccc(OC)c1C(=O)Nc1ccc(C)cc1C(=O)c1ccccc1	-20	-13	11	.	0	0	-6	i
COc1ccc(CCC(=O)Nc2ccc3c(c2)OCO3)cc1OC	22	1	13	1	-3	-3	7	i
O=C1NCCCC1C(=O)N/N=C/c1cccc([N+](=O)[O-])c1 (centres undefined)	-5	-9	-2	-28	2	6	11	i
O=C(CCn1c(=S)oc2ccccc21)Nc1cccc(O)c1	-1	0	-1	.	4	7	-19	i
CCCc1nnc(NC(=O)CCC(=O)N2CCN(Cc3ccc(OC)c(F)c3)CC2)s1	-2	-1	0	-13	4	-11	-1	i
Cc1ccc(NC(=O)c2cc([N+](=O)[O-])ccc2NCc2cccnc2)cc1	0	5	-6	-17	-7	-5	-19	i
COc1cc(OC)c(OC)cc1CN1CCSCC1	-21	3	2	1	0	4	-3	i
O=C(COC(=O)c1cnccn1)Nc1cccc2ccccc12	-19	9	1	1	-1	-1	-9	i
COC(=O)COc1c(Cl)cc(C(c2c(C)[nH][nH]c2=O)c2c(C)[nH][nH]c2=O)cc1OC	-7	-11	-3	-17	-1	-2	15	i
COc1ccc(NC(=O)CSc2ccccc2)cc1S(=O)(=O)N1CCOCC1	16	0	6	-11	0	-2	7	i
O=[N+]([O-])c1ccc(N/N=C/c2sc(N3CCOCC3)nc2-c2ccccc2)c(S(=O)(=O)Nc2ccccc2Cl)c1	.	46	8	.	-227	-29	95*	.
CC1(C(=O)OCC(=O)Nc2ccccc2)CC1(Cl)Cl (centres undefined)	-2	-2	54	-5	0	0	-14	i	eIF4H FP inh retest=6;PABP FP inh retest=46
COc1cc(OC)nc(S(C)(=O)=O)n1	3	-4	-3	-6	2	1	2	i
CCOC(=O)c1cc(S(=O)(=O)Nc2ccc(F)cc2F)cn1C	-13	.	.	-19	0	-3	-4	i
CC(C)CCc1noc(CN(CC2CCC2)CC2CCCO2)n1 (centres undefined)	-6	0	0	-11	9	7	-7	i
C/C(=N\Nc1cc(C)nc(-c2ccccc2O)n1)c1ccccc1	-1	-18	-9	.	-18	-12	-10	i
COc1ccc(-c2cc(C(=O)N(C)Cc3cccc(OC)c3OC)c3ccccc3n2)cc1OC	7	-6	12	-7	3	-3	20	i
CC(C)(C)NC(=O)c1ccc(NC(=O)c2ccccc2-c2ccccc2C(=O)O)cc1	-14	-6	3	-9	-1	-1	-34	i
CCOC(=O)c1ccc(NC(=O)NNC(=O)CCc2ccc(OC)cc2)cc1	-7	0	7	-16	3	2	-6	i
COc1ccccc1-c1cc(NC=O)c2ncc(-c3ccc(S(C)(=O)=O)cc3)n2c1	.	.	.	-20	-8	-4	-132	.
Cc1nn(-c2ccccc2)c(C)c1/C=C1\C(=O)N(C)C(=S)N1C	-6	2	-10	.	1	2	-9	i
Cc1ccccc1NC(=O)c1ccc(CN2CC(=O)N3CCCCC3C2=O)cc1 (centres undefined)	-7	-7	-2	-7	-4	-2	.	i
C=CCc1cccc(OC)c1OCCOCCNCCO	-10	-4	15	-15	3	5	-70	.
Brc1ccc(N=Nc2ccc3ccccc3n2)cc1	31	5	9	-60	-1	4	29	i
CCc1ccc(N(CC(=O)Nc2ccc(OC)cc2OC)S(C)(=O)=O)cc1	.	6	8	-9	3	0	.	i
O=C(CN(C1CCCCC1)S(=O)(=O)c1ccccc1)NCC1CCCO1 (centres undefined)	.	4	2	-4	1	2	6	i
CC(C)(C)OC(=O)CN1C(=O)S/C(=C\c2ccc(-c3cccc(C(=O)O)c3)o2)C1=O	-11	65*	41	.	.	.	.	i	eIF4H FP inh retest=84*;PABP FP inh retest=47
COc1ccc(C(C)=O)cc1CN1C(=O)NC2(CCCCC2)C1=O	1	0	5	-33	0	-2	.	i
Cc1ccccc1NC(=O)c1c(-c2ccccc2)noc1C	-5	-2	5	-16	7	2	.	.
COCCc1nnc(NC(=O)C23CC4CC(CC(C4)C2)C3)s1	.	0	-5	-14	-3	-2	-13	i
O=C(O)CSc1nc(-c2ccccc2)nc2c1CCCC2	6	5	13	-14	3	5	6	i
NC(=O)c1cc2cc(Br)ccc2o/c1=N/NC(=O)c1cccc(F)c1	-2	-9	-4	-4	-2	-4	14	i

The list continues.
SMILES	CSC inhib	eIF4H FP inh	PABP FP inh	UUG fidelity	MT1-MMP act inh	MT1-MMP act inh RFP	Env fusion inh	Rce1 inh	others
CCCCC(=O)Nc1ccc(NC(=O)c2ccc(C)c([N+](=O)[O-])c2)cc1OC	-6	-6	14	.	1	0	-101	i
Cc1sc2nc(SCC(=O)NCc3ccco3)n(CCc3ccccc3)c(=O)c2c1C	0	5	5	-19	12	3	-178	i
CCOC(=O)C1CCN(CC(O)COc2ccc(C(=O)CC)cc2)CC1 (centres undefined)	-10	-7	-4	-13	3	3	-58	.
Cc1cccc(C(=O)OC2CCN(C)CC2)c1	47	-2	6	.	0	0	-11	i
Cc1c2cnn(CC(=O)NCc3ccccn3)c(=O)c2c(C)n1Cc1ccccc1	.	-1	25	-25	-4	-5	.	i
Cc1cc(C)cc(OCC(=O)OCC(=O)NCc2cccs2)c1	14	10	7	-12	4	1	9	i
NS(=O)(=O)c1ccc(CCNC(=O)C2CCN(S(=O)(=O)c3cccc4cccnc34)CC2)cc1	-11	-6	-10	-11	0	5	.	i
CC1=CC(=O)OC1Cc1ccncc1 (centres undefined)	-1	-5	-1	0	0	1	.	i
COC(=O)CC1SCCNC1=O (centres undefined)	17	6	10	-8	1	-2	-13	i
O=C(CCC1CCCN(C(=O)c2ccc(F)c(F)c2)C1)N1CCN(c2ccccn2)CC1 (centres undefined)	-11	-6	0	-19	0	-3	3	.

Sorted by formula weight (ascending): some entries from above.
SMILES	CSC inhib	eIF4H FP inh	PABP FP inh	UUG fidelity	MT1-MMP act inh	MT1-MMP act inh RFP	Env fusion inh	Rce1 inh	others
CC1(C(=O)OCC(=O)Nc2ccccc2)CC1(Cl)Cl (centres undefined)	-2	-2	54	-5	0	0	-14	i	eIF4H FP inh retest=6;PABP FP inh retest=46
COCCc1nnc(NC(=O)C23CC4CC(CC(C4)C2)C3)s1	.	0	-5	-14	-3	-2	-13	i
Cc1cc(C)cc(OCC(=O)OCC(=O)NCc2cccs2)c1	14	10	7	-12	4	1	9	i
COc1ccc(N2CCN(C(=O)CN3C(=O)c4ccccc4S3(=O)=O)CC2)cc1	12	-9	4	-4	-4	-1	.	i
COc1ccccc1-c1cc(NC=O)c2ncc(-c3ccc(S(C)(=O)=O)cc3)n2c1	.	.	.	-20	-8	-4	-132	.
O=C(NC1CCN(Cc2ccccc2)CC1)c1ccccc1OCc1ccccc1Cl	19	-15	-18	-17	-4	-8	-19	i
O=[N+]([O-])c1ccc(N/N=C/c2sc(N3CCOCC3)nc2-c2ccccc2)c(S(=O)(=O)Nc2ccccc2Cl)c1	.	46	8	.	-227	-29	95*	.

The results go on.
SMILES	CSC inhib	eIF4H FP inh	PABP FP inh	UUG fidelity	MT1-MMP act inh	MT1-MMP act inh RFP	Env fusion inh	Rce1 inh	others
COC(=O)N1C(=O)[C@](c2ccccc2)(C2CCCC2)N1C(=O)OC	15	-4	-2	-21	-7	3	10	i
COc1cc(C(=O)Nc2nccs2)ccc1OCc1c(C)noc1C	6	-1	0	0	10	-2	.	i
Cc1ccc(C(=O)/C=C/Nc2ccc(S(=O)(=O)Nc3cc(C)nc(C)n3)cc2)cc1	-2	8	7	1	5	-4	0	i
O=C(N/N=C/C=C/c1ccccc1)c1ccccc1Br	-3	-6	-4	1	-1	0	-89	i
CC(=O)N1CCOc2ccc(S(=O)(=O)NCC3CCC(C(=O)Nc4ncccc4C)CC3)cc21 (centres undefined)	-18	-5	2	-5	1	-4	-1	i
CC(C)Oc1cccc(C(=O)C2CCCN(C(=O)c3noc4c3CCCC4)C2)c1 (centres undefined)	2	-6	-1	.	2	-5	11	i
CC(NC(=O)NC(=O)c1cccc([N+](=O)[O-])c1)C1CC1 (centres undefined)	-6	-12	-4	-12	3	3	-39	i
CN1CCN(c2ccccc2NC(=O)COc2ccccc2)CC1	-15	1	2	.	-3	-2	0	i
CN(CC(=O)Nc1ccccc1Cl)C(=O)C1CCN(C(=O)c2ccc(Cl)cc2)CC1	.	-7	-5	-3	4	2	.	i
CN(CCNC(=O)C1CCC(=O)N(Cc2cccc(F)c2)C1)CCc1ccccc1 (centres undefined)	-13	-8	-1	-16	4	0	-303	i
Cc1cc(Nc2cccc(Cl)c2)c2ccccc2n1	-10	1	6	16	1	-9	29	i
CCCn1c(SCC(N)=O)nnc1C(C)C	-10	-2	3	-24	-6	2	.	i
Cc1nnc(SCC(=O)N/N=C/c2cn(-c3ccccc3)nc2-c2ccc(F)cc2)n1-c1ccccc1	-21	0	3	-23	0	-1	.	i
COc1cc(/C=C2/NC(=O)N(Cc3ccccc3F)C2=O)cc(OC)c1OC	-3	-6	-7	.	1	-7	1	i
O=c1[nH]c(O)c(N=Nc2ccc(Cl)c(S(=O)(=O)Nc3ccccc3Cl)c2)c(=O)[nH]1	-7	.	.	-7	7	9	-92	.
COC(C[C@@H](O)[C@@H](C)[C@@H](O)COCc1ccccc1)OC	.	12	7	-16	5	3	13	i
CCC(C(=O)OCC(=O)Nc1cccc(OC)c1)c1ccccc1 (centres undefined)	-5	4	-9	5	-1	1	14	i
CCc1c(O)nc(SCC(=O)N2CCc3cc(OC)c(OC)cc3[C@@H]2C)[nH]c1=O	-1	0	-5	2	2	4	.	i
Cc1nc(-c2ccc(F)cc2)c(CC(=O)Nc2ccc(C)c(S(=O)(=O)N3CCOCC3)c2)s1	-17	-9	2	1	-6	-5	-19	i
